# Mtb bLac sens – beta-lactam sensitization of Mtb H37Rv, H37Rv. AID 434955, 2010. M. tuberculosis H37Rv growth with meropenem, percent inhibition; hits of this screen are not shown here. inhibition, % at 25 µM. actives 0.27% (n = 330,000);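 active = about 74% or more and at least 40 points above the plate without the antibiotic, then above 30% in a dose series; inconclusive = first-round hits that could not be retested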;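 also: growth measured after seven days incubation then overnight dye step; 0% = bacteria only wells and 100% = bacteria with antibiotic; twin plates without the antibiotic show which effects depend on it; some results filed as inactive read as strong as hits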
# Starred values were filed as active, the others as inactive; ? = inconclusive.
SMILES,Mtb bLac sens
Cc1cc(=O)[nH]c(SCC(=O)c2ccc(F)c(C)c2)n1,-7.6
CC(C)CN(C(=O)CSc1nc2ccccc2c(=O)[nH]1)c1c(N)n(CC(C)C)c(=O)[nH]c1=O,1.7
O=C(NCc1ccccc1Cl)C1CCCN(S(=O)(=O)c2cccc3nonc23)C1 (stereo not drawn),1.3
O=C(C[C@H]1C/C=C\CC[C@@H](Cc2ccc(F)cc2)C(=O)OCCNC1=O)NCCO,-10.1
CCC1CCCCN1C(=O)c1cc(S(=O)(=O)N2CCOCC2)ccc1C (stereo not drawn),5.3
CCN(/C(N)=N/c1nc(C)cc(C)n1)c1ccccc1,-16.5
O=C(COC(=O)c1ccccc1OCc1ccc(Cl)cc1)NCC1CCCO1 (stereo not drawn),6.2
CCCCN(C(=O)COC(=O)c1ccccc1)c1c(N)n(CCC)c(=O)[nH]c1=O,0.4
CCCCc1c(O)nc(SCC(=O)N2CCOCC2)n(-c2ccc(OC)cc2)c1=O,3.0
COc1ccccc1NC(=O)c1ccc(NC(=O)COC(=O)c2ccc(O)cc2)cc1,-4.0
Cc1ccc(-c2cn(CCC(=O)O)c(-c3ccc(Cl)nc3)n2)cc1,-6.0
O=C(COC(=O)/C=C/c1ccc(Cl)cc1)NC(=O)NCc1ccccc1,-5.1
CCCCCCC[N+](CC)(CC)CCCCc1ccc(Cl)cc1,57.6
CCCCN(C)CCN1C(=O)C2C(C(=O)Nc3ccc(Cl)cc3)C3C=CC2(O3)C1C(=O)NC1CCCCC1 (stereo not drawn),6.7
CCS(=O)(=O)c1ccc(O)c(NC(=O)c2ccc(S(=O)(=O)N3CCCCCC3)cc2)c1,0.1
O=C1CC2(CCCC2)C(=O)N1CN1CCN(S(=O)(=O)c2ccc(F)cc2F)CC1,7.3
COc1ccccc1NS(=O)(=O)c1cc(NC(=O)C2=NNC(=O)CC2)ccc1C,-3.4
Cn1nnnc1SCC(=O)Nc1sccc1C(N)=O,2.7
Cn1c(N)c(C(=O)CSc2nnc(-c3c[nH]c4ccccc34)n2C2CC2)c(=O)[nH]c1=O,-1.4
CC(C)(O)[C@@H]1CC(=O)[C@]2(C)[C@H](CC[C@@]3(C)[C@H](c4ccoc4)OC(=O)[C@H]4O[C@]432)[C@@]1(C)/C=C\C(=O)O,-5.3
CCOC(=O)[C@H]1[C@H]2COc3ccc(C)cc3[C@@H]2N2C(=O)c3ccc(C)cc3NC(=O)[C@@]12C,-7.8
CC1(C)C(=O)Nc2ccccc2N1C(=O)COC(=O)Cc1ccc(Cl)c(Cl)c1,4.7
Oc1ccc2c3c1OC1c4oc5ccccc5c4C[C@@]4(O)[C@@H](C2)N(CC2CC2)CC[C@]314 (stereo partly drawn),-3.8
Cc1ccc(S(=O)(=O)N(C)CC(=O)NCCCn2nc(C)cc2C)cc1,-7.4
COc1ccc(CN2CCN(C(=O)CCC(=O)c3ccc(C)s3)CC2)cc1OC,-0.8

# Other compounds follow.
SMILES,Mtb bLac sens
Cc1coc2cc3oc(=O)c(CCC(=O)NCCCN4CCCC4=O)c(C)c3cc12,-2.6
COc1cc(C(C(=O)NC2CCCCC2)N(C(=O)c2snc(C(N)=O)c2N)c2ccc(C)cc2)ccc1O (stereo not drawn),2.7
O=S(=O)(Nc1ccc2cn[nH]c2c1)c1ccc(C(F)(F)F)cc1,3.4
O=C(N/N=C/c1cccc([N+](=O)[O-])c1)C(=O)N1CCCCCC1,?
Cc1ccc(NC(=O)COC(=O)CCNS(=O)(=O)c2c(Cl)cccc2Cl)cc1,-5.4
CC(C)c1ccc(S(=O)(=O)N2CCN(C(C)C(=O)NC3CCCC3)CC2)cc1 (stereo not drawn),100.1
Cc1cc(C)c(S(=O)(=O)N2CCN(C(=O)C3COc4ccccc4O3)CC2)c(C)c1 (stereo not drawn),-5.4
CCc1ccc(C(=O)CCC(=O)Nc2ccc(OC)c(S(=O)(=O)N3CCCCC3)c2)cc1,-6.5
CC(C)(C)c1ccc(C(=O)Nc2cccc3ncccc23)cc1,1.0
O=C(CCS(=O)(=O)c1ccc(Cl)cc1)NC1CCCC1,-1.1
O=P1(NCCCl)OCCCN1CCCl (stereo not drawn),-1.4
Cc1nc(SCC(=O)Nc2ccc3[nH]c(=O)[nH]c3c2)nc(C)c1C,-6.3
Cc1ccc(SCC(=O)Nc2cc(S(=O)(=O)N3CCCCC3)ccc2C)cc1,-0.8
CN(Cc1cccs1)C(=O)c1cc(S(=O)(=O)N2CCOCC2)ccc1N1CCCC1,1.4
CCCN(Cc1nnc(-c2cccs2)o1)C(=O)c1cc(S(=O)(=O)N2CCOCC2)ccc1C,5.0
COC(=O)[C@@]12CCCN1[C@H](c1ccc(-c3ccc(Cl)c(Cl)c3)c(OC)c1)[C@H]1C(=O)N(C)C(=O)[C@H]12,-2.6
O=C(COc1ccc(Br)cc1)NCCCN1CCCC1=O,3.1
O=C(CCNC(=O)c1ccccc1Cl)Nc1ccc(S(=O)(=O)Nc2nccs2)cc1,3.0
O=C(NCCOC(=O)c1ccccc1)c1ccccc1,1.4
COc1ccc(-c2c(C#Cc3ccsc3)c3cc(-c4ccc(OC)c(F)c4)ccc3n2C)cc1,-1.2
COCCNc1oc(-c2ccccc2Cl)nc1S(=O)(=O)c1ccc(C)cc1,-7.5
O=C(CNC(=O)c1ccccc1Cl)Nc1ccncc1,1.0
CCN(C(=O)COC(=O)c1cc(C)oc1C)c1c(N)n(Cc2ccccc2)c(=O)[nH]c1=O,3.6
COc1ccc(C(CNC(=O)c2[nH]c(C)c(C(C)=O)c2C)N2CCOCC2)cc1 (stereo not drawn),-9.3
Cc1ccsc1CNc1ncnc2ccc(-c3c(C)noc3C)cc12,-6.2

# As entered above:
# Reading for Cc1ccc(NC(=O)COC(=O)CCNS(=O)(=O)c2c(Cl)cccc2Cl)cc1 under Mtb bLac sens: -5.4
# Reading for CC(C)(C)c1ccc(C(=O)Nc2cccc3ncccc23)cc1 under Mtb bLac sens: 1.0

# (list continues)
SMILES,Mtb bLac sens
NS(=O)(=O)c1ccc(NC(=O)COC(=O)CCCN2C(=O)c3cccc4cccc(c34)C2=O)cc1,-1.2
CN(C(=O)c1ccc(NC(=O)Cc2cccc(NC(=O)C3CCCN(C(=O)CCc4ccccc4)C3)c2)cc1)C1CCCC1 (stereo not drawn),4.4
COc1cccc(NC(=O)C2CCC2)c1,-7.3
O=C(O)c1ccc(Cl)c(S(=O)(=O)N(Cc2ccccc2)c2ccccc2)c1,-6.6
COc1ccc(NC(=O)CN(C)C2=NS(=O)(=O)c3ccccc32)cc1Cl,-1.1
Cc1cc(NC(=O)CSCC(=O)Nc2nc3ccccc3s2)no1,0.3
COC(=O)C1=C(c2c(C)noc2C)C[C@@H]2CC[C@H]1N2C(=O)NCCOc1ccccc1Cl,2.8
CCCCN(C(=O)C(C)N1C(=O)c2ccccc2C1=O)c1c(N)n(CCCC)c(=O)[nH]c1=O (stereo not drawn),-8.0
CC(C)(C)OC(=O)C[C@@H]1C/C=C\C[C@@H](CC(=O)NCCO)C(=O)NC[C@@H](c2ccccc2)OC1=O,-0.8
O=C(Nc1ccc(F)c(F)c1)C1CCN(S(=O)(=O)c2cccs2)CC1,-4.5
COc1ccc2c(c1)[C@H]1[C@H](CO2)[C@H](c2ccccc2)[C@]2(C)C(=O)N[C@H](C)C(=O)N12,2.4
Cc1ccc(NC(=O)C2CCN(S(=O)(=O)c3cc([N+](=O)[O-])ccc3Cl)CC2)nc1,97.6
COC(=O)[C@]1(Cc2ccccc2)N[C@H](CN(C)C(=O)Nc2ccc(F)cc2)[C@@H]2C(=O)N(C)C(=O)[C@@H]21,2.8
CSc1ncccc1C(=O)OCC(=O)N1CC2(C)CC1CC(C)(C)C2 (stereo not drawn),3.8
CCOc1ncccc1C(=O)Nc1cc(S(=O)(=O)N(CC)CC)ccc1N1CCOCC1,0.4
COc1ccccc1NC(=O)COC(=O)c1cn(C)c2ccccc12,6.3
COc1ccc2c(c1)[C@H]1[C@H](CO2)[C@H](c2ccccc2)[C@]2(C)C(=O)N[C@@H](C)C(=O)N12,-5.8
Cc1[nH]c2ccccc2c1C=NNC(=O)c1cc(-c2cccnc2)nc2ccccc12,4.4
CCS(=O)(=O)N1Cc2ccccc2CC1C(=O)Nc1ccc(F)c(F)c1 (stereo not drawn),0.3
COC(=O)C1=C(c2cccc(OCc3ccccc3)c2)C[C@@H]2CC[C@H]1N2C(=O)NCc1ccc(Cl)cc1,-8.6
COCCN(CC(=O)Nc1cccc(C)c1C)C(=O)c1oc2c(Cl)cccc2c1C,-3.7
CCn1c(SCC(=O)c2c(N)n(C3CC3)c(=O)[nH]c2=O)nc2cc(S(N)(=O)=O)ccc21,12.7
O=C(COC(=O)/C=C/c1ccccc1)NCc1ccc2c(c1)OCO2,3.1
CCOc1ccccc1Nc1nnc(SCC(=O)NC2CC2)s1,-0.3
COc1ccc(C(C)(C)C)cc1NC(=O)C1=CC=CN2CCS(=O)(=O)N=C12,-6.0

# 5 of the compounds above, bar-delimited:
structure | Mtb bLac sens
COc1cccc(NC(=O)C2CCC2)c1 | -7.3
O=C(O)c1ccc(Cl)c(S(=O)(=O)N(Cc2ccccc2)c2ccccc2)c1 | -6.6
COc1ccc(NC(=O)CN(C)C2=NS(=O)(=O)c3ccccc32)cc1Cl | -1.1
Cc1cc(NC(=O)CSCC(=O)Nc2nc3ccccc3s2)no1 | 0.3
COC(=O)C1=C(c2c(C)noc2C)C[C@@H]2CC[C@H]1N2C(=O)NCCOc1ccccc1Cl | 2.8

# Continuation.
SMILES,Mtb bLac sens
O=C(Nc1cccc(F)c1)C1CCCN(C(=O)c2ccc(Cl)cc2)C1 (stereo not drawn),1.5
O=C1CN(C(=O)COC(=O)c2ccc(Br)o2)c2ccccc2N1,-4.5
C[C@H]1O[C@@H](O[C@H]2CC[C@@]3(C)C(CC[C@]4(C)C3C=C[C@]35OC[C@@]6(CCC(C)(C)C[C@H]63)[C@@H](O)C[C@]54C)[C@]2(C)CO)[C@H](O)[C@@H](O[C@@H]2O[C@H](CO)[C@@H](O)[C@H](O)[C@H]2O)[C@H]1O (stereo partly drawn),4.5
CC1CN(C(=O)c2ccc(Br)c(S(=O)(=O)N3CCOCC3)c2)CC(C)O1 (stereo not drawn),2.6
CCCC(=O)Nc1ccc(C(=O)COC(=O)C2CC2)cc1,34.7
O=C(N/N=C/c1ccccc1)c1ccc(NC(=O)c2ccc(F)cc2)cc1,-4.1
O=C(COC(=O)c1c(Cl)cccc1Cl)NCc1cccs1,0.0
Cc1cnc(C(=O)OCC(=O)Nc2cccc3ccccc23)cn1,-3.2
Cc1ccc(S(=O)(=O)N(C)C[C@@H]2Oc3ccc(NC(=O)Cn4cnnn4)cc3C(=O)N([C@@H](C)CO)C[C@H]2C)cc1,1.4
CCCN(CC(=O)Nc1ccc(F)c(F)c1F)C(=O)c1ccc(N2CCCC2=O)cc1,4.0
C[C@@H](NC(=O)c1[nH]cnc1C(=O)Nc1nccs1)c1ccccc1,62.2
O=C(N[C@H]1C/C=C\C[C@@H](CC(=O)N(CCO)Cc2ccccc2)C(=O)N2CCC[C@@H]2COC1=O)OCC1c2ccccc2-c2ccccc21,-2.2
CCOc1ccc(C(=O)NCC(=O)OCCN2C(=O)c3ccccc3C2=O)cc1OCC,3.8
COc1ccc(NC(=O)[C@@H](NC(=O)N2C[C@H]3C[C@@H](C2)c2cccc(=O)n2C3)C(C)C)cc1,-8.8
CC1CC(C)CN(C(=O)COC(=O)c2cncc(Br)c2)C1 (stereo not drawn),3.8
Cc1ccc(C(=O)NC2CC(C)(C)NC(C)(C)C2)cc1Cl,1.2
C[C@H](CO)N1C[C@H](C)[C@@H](CN(C)Cc2ccncc2)Oc2c(NC(=O)C3CC3)cccc2C1=O,7.1
COc1cc2sc(-c3ccccc3OC)c(-c3ccc(OCCN4CCCCC4)cc3)c2cc1OC,100.0
Cc1c(NC(=O)c2cnc(Cl)c(Cl)c2)c(=O)n(-c2ccccc2)n1C,8.2
C[C@H](CO)N1C[C@H](C)[C@@H](CN(C)S(=O)(=O)c2cccs2)Oc2ccc(NC(=O)Nc3ccc(C(F)(F)F)cc3)cc2C1=O,94.6
O=C(COC(=O)c1ccc(CN2CCCC2=O)cc1)Nc1ccc(F)cc1,3.2
CCOc1ccc(C(=O)NCC(=O)Nc2ccncc2)cc1OCC,-3.3
CCN(c1ccccc1)S(=O)(=O)c1ccc(N2CCN(c3ccc(O)cc3)CC2)nc1,3.0
COc1cccc(NC(=O)CN(C)C(=O)C2CC3C=CC2C3)c1 (stereo not drawn),0.0
O=C1COc2ccc(C(=O)COC(=O)c3c(F)cccc3Cl)cc2N1,-5.3

# Additional entries follow:
SMILES,Mtb bLac sens
COc1ccc(NC(=O)CSc2nc(C)cs2)c([N+](=O)[O-])c1,0.8
Cc1ccc(S(=O)(=O)N2CCOCC2)cc1NC(=O)CSc1nnc(NC2CC2)s1,1.5
CC1(C)CC[C@]2(C(=O)O[C@@H]3OC(CO)[C@@H](O)[C@H](O)[C@H]3O)CC[C@]3(C)C(=CCC4[C@@]5(C)CC[C@H](O[C@@H]6OC(C(=O)O)[C@@H](O)[C@H](O)[C@H]6O)C(C)(C)C5CC[C@]43C)[C@@H]2C1 (stereo partly drawn),-7.7
CCOc1ccccc1C(=O)OCC(=O)Nc1cc(S(=O)(=O)N2CCOCC2)ccc1C,-4.2
C=CCN(Cc1cccs1)C(=O)COc1ccc2c(c1)OCO2,-3.9
O=C(NN=Cc1ccc(F)cc1)c1cccc(S(=O)(=O)N2CCCC2)c1,-6.1
NC(=O)C1CCN(C(=O)c2cc(-c3ccc(Cl)cc3)nc3ccccc23)CC1,0.4
CC1(C)CC(NC(=O)c2cc(S(=O)(=O)N3CCOCC3)ccc2Cl)CC(C)(C)N1,-5.1
CC(C)c1cc(CNC(=O)C2CCC(=O)N(Cc3ccccc3F)C2)on1 (stereo not drawn),?
CCCCCOc1ccc(C(=O)Nc2ccc(N3CCOCC3)cc2N2CCOCC2)cc1,-10.5
O=C(COc1ccc(Cl)c2cccnc12)N1CCOCC1,-1.1

# An excerpt (hit frequency here may not be typical).
